GIV Gai3 FP: GIV-Galpha-i interaction inhibition | P08753 | Galpha-i3/FITC-GIV peptide fluorescence polarization, 90 min; hits give low values; scaled: aluminum fluoride 0%, vehicle 100% | percent of control (FP), % (no concentration beside the values) | 210,000 compounds, 0.42% hits;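 active = replicate mean at 85% of control or lower, very high polarization wells dropped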;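 note: wells of about 15 µL received 100 nL stock; the first replicate is given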
Target sequence (P08753 whole entry, looked up): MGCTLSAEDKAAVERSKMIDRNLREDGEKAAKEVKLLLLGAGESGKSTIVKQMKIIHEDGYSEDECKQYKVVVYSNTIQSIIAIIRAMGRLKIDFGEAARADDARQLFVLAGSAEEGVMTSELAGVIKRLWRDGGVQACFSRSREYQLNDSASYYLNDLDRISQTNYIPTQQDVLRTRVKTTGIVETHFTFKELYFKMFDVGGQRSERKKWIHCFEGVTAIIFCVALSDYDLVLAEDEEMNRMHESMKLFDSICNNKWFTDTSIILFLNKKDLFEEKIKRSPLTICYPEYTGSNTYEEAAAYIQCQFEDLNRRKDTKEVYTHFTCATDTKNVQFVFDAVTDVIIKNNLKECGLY
HCMV NEC inh: cytomegalovirus nuclear egress complex inhibition. HTRF UL50-UL53 interaction, normalized percent inhibition. inhibition, % (concentration not given with the values). 190,000 compounds, 0.15% hits. AID 1918969;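 active = both replicates at 50% or more, plus weaker picks with an unusually low signal ratio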;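 note: stock transfer was 100 nL into about 20 µL; 0% = negative control wells and 100% = wells with untagged competitor protein; inactives centre near -12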
Sa growth inh: blocks Staphylococcus aureus growth. AID 720641. relative growth, % (test concentration not listed). S. aureus RN4220 growth, OD600, 20 h, 42 °C; hits give low values. 170,000 compounds, 0.53% hits;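 active = growth at 42 °C up to 50% and 20 or more points under that at 30 °C, or under 10% at both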;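 note: 300 nL library stock went into each well; scaled to the means of positive and negative controls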
Sa growth inh second temp: second read-out of Sa growth inh, no call of its own (marks repeat the call); relative growth, %; measured here: growth at 30 °C;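 optical density after 20 h as mean of two plates; 100% = untreated growth and lower means inhibition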
Active calls of the source: *; nt = not tested or not shown; & = joins results of further samples.

SMILES	GIV Gai3 FP	HCMV NEC inh	Sa growth inh	Sa growth inh second temp
CC(C)(C)c1ccc(C(=O)N2CCCC(c3nc4c(nnn4Cc4cccc(F)c4)c(=O)[nH]3)C2)cc1 (stereo not drawn)	99	-9	65	42
Cc1ccc(NC(=O)CCOc2ccccc2)cc1	106&105	-17	90&92	89&93
CCc1ccc(N=C2NC(=O)CS2)cc1	108	-2	86	59
CC1=C(c2ccc(Cl)cc2)S(=O)(=O)N=C1N1CCN(c2cccc(C)c2C)CC1	105	-5	110	89
COc1ccc(Cn2cnc3c4ccccc4n(CC(=O)Nc4cccc(OC)c4)c3c2=O)cc1	108	-9	nt	nt
Cc1ccccc1NC(=O)CC(=O)Nc1ccccc1C	nt	-34	86	86
CCc1ccn2cc(-c3ccc4c(c3)OCO4)nc2c1	102	-33	85	65
CCn1c(-c2ccco2)nn(CN(C)CC(=O)Nc2ccc(F)c(F)c2F)c1=S	nt	-38	79	90
COc1cc(/C=C2\N=C(c3c(-c4ccccc4)noc3C)OC2=O)cc(OC)c1OC	110	-7	nt	nt
Cc1noc(C)c1COc1ccc(C(=O)OC2CCOC2=O)cc1 (stereo not drawn)	nt	-13	79	91
O=C(NC1CCCC1)c1ccc2c(=O)n(Cc3ccccc3)c(SCc3ccccc3)nc2c1	103	nt	113	95
COc1ccc2cc(C(=O)N3CCCN(c4ccc(=O)n(-c5ccccc5)n4)CC3)[nH]c2c1	102	-45	nt	nt
Cc1ccc(-n2c(Cc3cccn3C)nnc2SCC(=O)N2CCC(C)CC2)cc1	96	-38	nt	nt
COc1ccc(Br)cc1CNc1ccccc1	nt	-8	83	100
CC(C)OCCCN1C(=O)c2[nH]nc(-c3ccccc3O)c2C1c1ccc(OCc2ccccc2)cc1 (stereo not drawn)	98	-7	86	72
COc1ccc(CCNC(=O)c2cc(Sc3cccc(Cl)c3)nc3ccccc23)cc1OC	106	nt	122	91
Cc1csc(-c2coc3c(C)c(O)c(CN4CCN(CCO)CC4)cc3c2=O)n1	101	-33	97	94
CC(C)Cn1c(=S)[nH]c2cc(C(=O)NCc3ccco3)ccc2c1=O	nt	8	94	88
CSc1nc(N)n2nc(C(C)(C)C)cc2n1	104	-16	106	89
CCC(C)NC(=O)C1CCN(c2ccnc(-c3ccccc3)n2)CC1 (stereo not drawn)	102	-17	nt	nt
COc1cc(CC(=O)OCC(=O)C(C)(C)C)cc(OC)c1OC	nt	5	82	98
COC(=O)COc1nsnc1N1CCOCC1	99	nt	97	83
Cn1c(=O)oc2cc(S(=O)(=O)N3CCC(C(=O)N4CCCCC4)CC3)ccc21	98	-6	74	87
CN(CC(=O)Nc1ccc2c(c1)OCCCO2)Cc1ccc2c(c1)OCCO2	nt	-12	99	86
COc1ccc(-c2nc3ccccc3c(=O)n2NC(=O)COc2ccc(Cl)cc2Cl)cc1OC	106	-23	nt	nt
O=C(Cn1nc(Cc2cccnc2)c2ccccc2c1=O)Nc1ccc(F)c(Cl)c1	107	-43	101	87
Cc1cc(NC(=O)CSc2nc(C3CCCCC3)nc3sc(C)c(C)c23)no1	100	-25	86	80
COc1ccc(S(=O)(=O)NCC(c2ccc(N(C)C)cc2)N2CCOCC2)cc1 (stereo not drawn)	93	nt	93	93
O=C(NCCc1ccccc1)c1ccc(Cn2c(SCc3ccccc3)nc3cccnc32)cc1	107	nt	118	114
O=C(CSc1cccc[n+]1[O-])c1cc2c3c(c1)CC(=O)N3CCC2	nt	-32	66	94
CCOc1ccccc1C1NC(=O)N(C)C(C)=C1C(=O)OCCOc1ccccc1 (stereo not drawn)	110	-13	nt	nt
CCOC(=O)c1cnc2cc(C(F)(F)F)ccc2c1N(C)Cc1ccccc1	100	nt	106	83
CC(NC(=O)c1ccc(C(C)(C)C)cc1)C(N)=O (stereo not drawn)	nt	-16	88	91
Cn1c(=O)n(C)c2cc(/C=C3/NC(=O)NC3=O)ccc21	90	nt	98	90
C(=C\c1ccccc1)/CNCCCN1CCOCC1	97	-9	77	93
Cc1ccccc1Oc1nc2c(c(=O)n(C)c(=O)n2C)n1Cc1ccc(Br)cc1	113	-20	94	100
Cc1nn(CC(=O)N(C)C2CCCCC2)c(=S)n1C	nt	-3	106	92
COCCNC(=O)Nc1cc(C(=O)NCc2ccc(C(C)C)cc2)ccc1N1CCCC1	104	nt	88	89
CCOC(=O)CC1OC(=O)c2cc3c(cc21)C(=O)OC3CC(=O)OCC (stereo not drawn)	106	16	88	84
CSc1ccccc1NC(=O)C1=CC(c2ccc3c(c2)OCO3)=NS(=O)(=O)N1C	103	-36	111	90
COc1ccc(-c2cc3nccc(-c4cc(Cl)c(C)cc4O)n3n2)cc1	103&105	-2&-10	100	89
Cc1ccc(-n2nc(C(=O)Nc3cccnc3)c(=O)n(C)c2=O)cc1	103	-145	nt	nt
O=C(CN1C(=O)c2cccnc2Sc2ccccc21)N1CCC2(CC1)OCCO2	104	-35	96	93
CN(CCNC(=O)C1CCN(c2ccc(-c3ccccc3)nn2)CC1)C1CCCCC1	105	-52	nt	nt
O=C(NCc1ccccc1Cl)c1ccc(CS(=O)(=O)c2ccc(Br)cc2)o1	102	-1	100	95
COc1ccc(C2C(=O)c3ccccc3C2=O)cc1OC	105	-135	103	93
O=C(c1cnn(-c2ccc(C(F)(F)F)cn2)c1)c1ccccc1O	nt	-14	101	89
N#Cc1nncn1-c1nc(-c2cccs2)nc2scc(-c3ccccc3)c12	nt	-17	63	94
CN(C)S(=O)(=O)c1ccc(C(=O)NCc2ccccc2CN2CCOCC2)cc1	nt	4	121	91
CCOc1ccc(-c2cc3c(SCC(=O)c4cc(C)ccc4C)nccn3n2)cc1	107	-13	nt	nt
CN(C)S(=O)(=O)c1ccc(C(=O)Nc2ncnc3sccc23)cc1	108	-33	90	79
C=Cc1ccc(Cn2c(=O)n(-c3ccc(C)cc3)c(=O)c3c2c2cc(OC)ccc2n3C)cc1	110	nt	124	92
COC(=O)c1sc(S(=O)(=O)Nc2cccc(C(F)(F)F)c2)c(C(=O)OC)c1C	98	-41	26	22
COc1ccccc1NC(=O)c1cc(Cl)nnc1Cl	nt	-15	90	88
O=C1CCSC2(C(=O)N(Cc3ccc(F)cc3)c3ccccc32)N1c1ccccc1 (stereo not drawn)	110	nt	90	88
Nc1ccc(S(=O)(=O)C(F)F)cc1	nt	1	102	92
COc1cccc(NC(=O)c2cnn(C)c2-n2cccc2)c1	99	-5	96	88
COc1ccc(C2C(C#N)=C(SCC(=O)NCc3ccc4c(c3)OCO4)NC3=C2C(=O)CC(C)(C)C3)cc1 (stereo not drawn)	101	10	119	96
O=C(CCn1cnc2onc(-c3cccc(F)c3)c2c1=O)N1CCc2ccccc21	103	-3	nt	nt
Cc1ccc(CNCC(O)COC2CCCc3ccccc32)n1C (stereo not drawn)	nt	-11	106	91
The list goes on.
SMILES	GIV Gai3 FP	HCMV NEC inh	Sa growth inh	Sa growth inh second temp
C[C@H]1O[C@@H](O[C@H]2[C@@H](O)C[C@H](O[C@H]3[C@@H](O)C[C@H](O[C@H]4CC[C@]5(C)C6CC[C@]7(C)[C@@H](C8=CC(=O)OC8)CC[C@]7(O)C6CC[C@@H]5C4)O[C@@H]3C)O[C@@H]2C)C[C@H](O)[C@@H]1O (stereo partly drawn)	nt	-7	101	96
CCN(CC)CCc1nnc(NC(=O)c2ccccc2)s1	105	nt	100	76
O=C(O)CCC(=O)Nc1ccccc1Cl	105	4	94	92
CCOc1ccc(OCC)c(NS(=O)(=O)c2ccc3[nH]c(=O)ccc3c2)c1	107	nt	123	97
CCOC(=O)c1cc(C(=O)NN)c(=O)[nH]c1C	101	-14	92	87
Cc1ccc(C(=O)N2CCN(CCc3ccccn3)CC2)cc1	106	3	nt	nt
CCOc1cc(C)cc2oc(=O)cc(CC)c12	102	6	110	108
CCCCN(CC)CCCNC(=O)c1cc2c(=O)[nH]c3ccccc3c2s1	105	-23	101	96
COC(=O)C(CC(C)C)NS(=O)(=O)c1ccc(-c2nnc(SC)n2C)s1 (stereo not drawn)	102	-45	104	83
Cc1cnc(=O)[nH]c1SCC(=O)c1ccc(F)cc1	103	-78	85	81
COc1ccc(-c2n[nH]c(=S)n2CCC(=O)O)cc1	nt	-8	92	91
NS(=O)(=O)c1ccc(CNC(=O)c2scc3c2OCCO3)cc1	106	-26	85	72
COc1ccc(N2CCN(C(=O)CCn3cnc4onc(-c5ccc(F)cc5)c4c3=O)CC2)cc1	106	nt	117	101
NC(=O)COC(=O)CC12CC3CC(CC(Br)(C3)C1)C2	nt	-18	91	95
O=C(NC1CCCC1)c1nc(Nc2ccc(F)cc2)c2ccccc2n1	102	1	nt	nt

Sorted by value in Sa growth inh (high to low): four from the list above
Compound	Sa growth inh
CCOc1ccc(OCC)c(NS(=O)(=O)c2ccc3[nH]c(=O)ccc3c2)c1	123
COC(=O)C(CC(C)C)NS(=O)(=O)c1ccc(-c2nnc(SC)n2C)s1 (stereo not drawn)	104
C[C@H]1O[C@@H](O[C@H]2[C@@H](O)C[C@H](O[C@H]3[C@@H](O)C[C@H](O[C@H]4CC[C@]5(C)C6CC[C@]7(C)[C@@H](C8=CC(=O)OC8)CC[C@]7(O)C6CC[C@@H]5C4)O[C@@H]3C)O[C@@H]2C)C[C@H](O)[C@@H]1O (stereo partly drawn)	101
NC(=O)COC(=O)CC12CC3CC(CC(Br)(C3)C1)C2	91

Following part:
SMILES	GIV Gai3 FP	HCMV NEC inh	Sa growth inh	Sa growth inh second temp
NC(=O)C1CCN(c2ccc(Cl)nn2)CC1	100	-40	85	83
CCOc1cc(C#N)c(NC(=O)c2cccs2)cc1OCC	102	-24	103	82
O=C(Nc1nccs1)C1CCCN(S(=O)(=O)c2ccc3nc(-c4ccccc4)[nH]c3c2)C1 (stereo not drawn)	108	-9	nt	nt
O=[N+]([O-])c1c(Nc2ccc(Cl)cc2)cc(N2CCOCC2)c2nonc12	110	-9	nt	nt
O=C(/C=C/c1ccc(F)cc1)NC(=S)Nc1ccccc1O	106	nt	110	72
CCOc1cccc(CNC(=O)CCc2nnc3c4cc(-c5ccccc5)nn4ccn23)c1	107	-16	nt	nt
CC(C)c1ccc(Nc2c(-c3ccccc3)nc3cnccn23)cc1	98	nt	100	78
O=S1(=O)CCC(N=Cc2ccccc2Cl)C1 (stereo not drawn)	nt	-6	81	83
CCc1nnc2c(Nc3ccc(Br)c(C)c3)nc3ccccc3n12	103	nt	97	84
Cc1cc(/C(N)=N/OC(=O)Nc2ccccc2)no1	103	-10	98	85
Cc1ccccc1CS(=O)(=O)c1ncc(Cl)c(C(=O)Nc2nnc(C(C)C)s2)n1	100	-30	5.7*	26*
COc1ccc(NC(=O)Nc2c(SC)nsc2SC)cc1	102	nt	114	89
Cc1ccc(NC(=O)COC(=O)CC2Oc3ccccc3NC2=O)cc1 (stereo not drawn)	nt	-12	78	82
CS(=O)(=O)N1CCN(C(=O)c2ccccc2)CC1	99	-29	117	95
Cc1nn(-c2ccccc2)c2nc(N)c(C#N)c(-c3ccco3)c12	nt	-43	90	89
CCOCCCN=C1NC(CC)CS1 (stereo not drawn)	nt	-28	96	89
CCN(Cc1nc(-c2ccc(OC)c(OC)c2)no1)C(=O)CCC1CCCCC1	103	-30	99	82
COc1cc(CNC(=O)c2ccc3nc(CCc4ccccc4)oc3c2)cc(OC)c1OC	98	nt	94	98
O=C(NCCc1c[nH]c2ccccc12)c1ccc2nc[nH]c2c1	nt	6	104	97
CC1CC/C(=C\c2ccc(Cl)cc2)C(=O)C1 (stereo not drawn)	nt	-16	94	83
CCCCCOc1ccc(C(CC(N)=O)CC(=O)O)cc1 (stereo not drawn)	100	10	108	79
CN(C1CCCCC1)S(=O)(=O)c1c[nH]c(-c2nnc(C3CC3)o2)c1	105	-32	nt	nt
C/C(=N\O)c1csc(-c2ccno2)n1	101	-24	105	94
Cc1cccc(CSc2nnc3n(CC(C)C)c(=O)c4cc(C)ccc4n23)c1	100	-4	nt	nt
COc1ccc(-c2noc(Cn3ccn4nc(-c5ccccc5)cc4c3=O)n2)cc1	107	-17	nt	nt
Cn1ncc2c(Nc3cc(C(F)(F)F)ccc3Cl)ncnc21	101	nt	90	82
N=C1C(c2nc3ccccc3s2)=C(O)CN1C1CCCC1	103	2	103	90
O=C(O)c1ccc(-c2ccc(/C=C3\Sc4ccccc4C3=O)o2)cc1	-10*	nt	91	82
CCC(=O)Nc1nc2c(s1)C(=O)CC(c1ccccc1)C2 (stereo not drawn)	106	-11	100	83
CC(C)(C)c1nc(N=C(N)N)sc1Br	104	-30	88	44
O=c1cc(COc2ccc(Cl)cc2)nc2sccn12	97	-28	nt	nt
COc1ccc(NC(=O)NNc2cc(N3CCOCC3)nc(N3CCOCC3)n2)cc1	101	-8	98	90
Cc1ccccc1CN1C(=O)c2ccccc2S(=O)c2ccc(C(=O)NC3CCC(C)CC3)cc21 (stereo not drawn)	104	nt	116	88

Some of the entries so far, field by field.
structure: CC1CC/C(=C\c2ccc(Cl)cc2)C(=O)C1 (stereo not drawn)
  GIV Gai3 FP = nt	HCMV NEC inh = -16	Sa growth inh = 94	Sa growth inh second temp = 83
structure: CCN(Cc1nc(-c2ccc(OC)c(OC)c2)no1)C(=O)CCC1CCCCC1
  GIV Gai3 FP = 103	HCMV NEC inh = -30	Sa growth inh = 99	Sa growth inh second temp = 82
structure: CN(C1CCCCC1)S(=O)(=O)c1c[nH]c(-c2nnc(C3CC3)o2)c1
  GIV Gai3 FP = 105	HCMV NEC inh = -32	Sa growth inh = nt	Sa growth inh second temp = nt
structure: CCCCCOc1ccc(C(CC(N)=O)CC(=O)O)cc1 (stereo not drawn)
  GIV Gai3 FP = 100	HCMV NEC inh = 10	Sa growth inh = 108	Sa growth inh second temp = 79

Source: PubChem BioAssay
